# Screening data (PubChem BioAssay)
# GIV Gai3 FP – inhibitors of GIV GBA-motif binding to rat Galpha-i3; 210,000 compounds, 0.42% hits; Galpha-i3/FITC-GIV peptide fluorescence polarization, 90 min; active compounds read low; scaled: aluminum fluoride 0%, vehicle 100%; P08753; percent of control (FP), % (no concentration beside the values);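 active = replicate mean at 85% of control or lower, very high polarization wells dropped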;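 also: wells of about 15 µL received 100 nL stock; the first replicate is given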
# Target sequence (P08753 whole entry, looked up): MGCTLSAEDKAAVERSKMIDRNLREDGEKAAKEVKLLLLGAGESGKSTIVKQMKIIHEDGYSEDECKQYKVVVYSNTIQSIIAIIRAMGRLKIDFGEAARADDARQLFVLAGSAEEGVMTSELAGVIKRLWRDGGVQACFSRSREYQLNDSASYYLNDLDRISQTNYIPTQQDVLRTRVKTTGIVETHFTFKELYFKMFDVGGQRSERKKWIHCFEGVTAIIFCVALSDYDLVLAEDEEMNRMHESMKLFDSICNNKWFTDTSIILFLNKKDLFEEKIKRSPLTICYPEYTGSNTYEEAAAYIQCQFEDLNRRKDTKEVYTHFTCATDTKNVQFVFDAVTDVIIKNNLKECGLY
# HCMV NEC inh – cytomegalovirus nuclear egress complex inhibition; 190,000 compounds, 0.15% hits; HTRF UL50-UL53 interaction, normalized percent inhibition; inhibition, % (concentration not given with the values);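 active = both replicates at 50% or more, plus weaker picks with an unusually low signal ratio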;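 also: stock transfer was 100 nL into about 20 µL; 0% = negative control wells and 100% = wells with untagged competitor protein; inactives centre near -12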
# An asterisk follows results filed as active; nt = no result given; & = joins results of further samples. A portion of the library; count on the stated rates, not on these rows.
SMILES,GIV Gai3 FP,HCMV NEC inh
COc1ccc2c(c1)C1(CCN(S(=O)(=O)c3cccs3)C1)C(=O)N2C (centres undefined),107.4,nt
O=C(O)C1C(C(=O)NCc2ccccc2)C2(Br)c3ccccc3C1(Br)c1ccccc12 (centres undefined),103.9,nt
CC1(C)NCCN2C(=O)CSC21 (centres undefined),105.5,nt
CC1=C(C(=O)OC(C)(C)C)C2(C(=O)Nc3ccc(Cl)cc32)C(C#N)=C(N)O1 (centres undefined),108.0,nt
O=P(Cc1ccccc1NCCCl)(c1ccccc1)c1ccccc1,104.7,nt
CC(=O)N1c2ccc(C)cc2C2CN(C)CCC21 (centres undefined),107.0,nt
CC(=O)OC1(c2ccccc2)CCN(C)CC1(C)C (centres undefined),108.8,nt
O=C(Nc1ccccc1)N1CC2CC(C1)c1cccc(=O)n1C2 (centres undefined),123.6,nt
CC12CC[C@H]3[C@@H](CCC4(O)C[C@H](O)CCC34/C=N/NC(=O)c3ccc4ccccc4n3)C1(O)CCC2C1=CC(=O)OC1 (some centres undefined),125.1,nt
CN(C)c1ccc(/C=N/NC(=O)CN2C(=O)CN=C(c3ccccc3)c3cc(Br)ccc32)cc1,117.7,nt
Cc1nc2cc(C(=O)N3CCC4(CC3)OCCO4)ccc2n1-c1ccc(Br)cc1,112.8,nt
CCOC(=O)c1c(CN2CCC(C(=O)OCC)(c3ccccc3)CC2)n(Cc2ccccc2)c2cc(Br)c(O)cc12,106.0,nt
CCCC(=O)N1c2ccc(C)cc2C2CN(C)CCC21 (centres undefined),110.6,nt
Cc1ccc(-c2ccc(C=C3C(=O)N(C)C(=O)N(C)C3=O)o2)c(Br)c1,111.0,nt
CCCS(=O)(=O)N1CCC2(C1)C(=O)Nc1ccc(OC)cc12 (centres undefined),111.2,nt
COCCNC(=O)N1CCC2(C1)C(=O)N(C)c1ccc(OC)cc12 (centres undefined),105.8,nt
CNC(=O)Nc1ccc(C(=O)N/N=C\C23CC[C@@H](O)CC2(O)CC[C@@H]2[C@@H]3CCC3(C)C(C4=CC(=O)OC4)CCC23O)cc1 (some centres undefined),119.6,nt
C[C@]12CCC(=O)C=C1CC=C1C2CC[C@@]2(C)C1CC[C@]2(O)C#N (some centres undefined),98.5,nt
CN(C)C1(c2nnnn2-c2cccc(Cl)c2)CCCCC1,102.2,nt
CC12CC[C@H]3[C@@H](CCC4(O)C[C@H](O)CCC34/C=N/NC(=O)c3cc4c(cn3)[nH]c3ccccc34)C1(O)CCC2C1=CC(=O)OC1 (some centres undefined),104.6,nt
N#CC1=CN(c2ccc(F)c(F)c2)c2cc(F)ccc2S1(=O)=O,101.8,nt
CCOC(=O)C(C)Oc1cc(C)cc2oc(=O)c3c(c12)CCCC3 (centres undefined),113.9,nt
CCCC1=C(C(=O)OCC)C2(C(=O)Nc3ccccc32)C(C(=O)OCCOC)=C(N)O1 (centres undefined),112.9,nt
CCOc1ccc2nc(NC(=O)c3cccn(Cc4ccc(Br)cc4)c3=O)sc2c1,104.2,nt
CC(=O)C1=C(C)OC(N)=C(C(=O)OCc2ccccc2)C12C(=O)Nc1ccccc12 (centres undefined),113.3,nt
CCOC(=O)c1c(C)n(Cc2ccccc2)c2cc(Br)c(OC(C)=O)cc12,111.7,nt
COC(=O)c1c(C)n(Cc2ccc(C(C)(C)C)cc2)c2c1cc(O)c1ccccc12,103.8,nt
O=C1CN=C(c2cc([N+](=O)[O-])ccc2Cl)c2cc([N+](=O)[O-])ccc2N1,111.1,nt
CCC(=O)N1CCC2(C1)C(=O)N(C)c1ccc(OC)cc12 (centres undefined),109.0,nt
CCCC1=C(C(=O)OCC)C2(C(=O)Nc3ccccc32)C(C(=O)OCc2ccccc2)=C(N)O1 (centres undefined),102.0,nt
O=C1CN(O)C(c2ccccc2)=c2cc(Br)ccc2=N1,110.4,nt
O=C1CN(O)C(c2ccccc2Cl)=c2cc(Br)ccc2=N1,104.9,nt
CCOC(=O)N(c1ccccc1)P1(=S)OCC(C)O1 (centres undefined),106.2,nt
CN1CCC(N(C)c2nc(-c3ccc([N+](=O)[O-])cc3)nc3ccccc23)CC1,102.4,nt
COc1cc2c(cc1OC)-c1c(OC)c(OC)cc3c1C(C2)N(C)CC3 (centres undefined),112.0,nt
CC(=O)OC1N=C(c2ccccc2)c2cc(Br)ccc2N(C)C1=O (centres undefined),105.4,nt
CC12CC[C@H]3[C@@H](CCC4(O)C[C@H](O)CCC34/C=N/NC(=O)CCCc3c[nH]c4ccccc34)C1(O)CCC2C1=CC(=O)OC1 (some centres undefined),118.3,nt
COC(=O)CCc1cc(C(C)(C)C)c(OP(O)Oc2c(C(C)(C)C)cc(CCC(=O)OC)cc2C(C)(C)C)c(C(C)(C)C)c1,108.8,nt
Cc1cccc(Cn2cccc(C(=O)Nc3nc(C)cs3)c2=O)c1,108.9,nt
COC(=O)C1C(=O)NC2(C)CC1c1ccccc1O2 (centres undefined),105.7,nt
COC(=O)C1=C(C)OC(N)=C(C(=O)OCc2ccccc2)C12C(=O)Nc1ccccc12 (centres undefined),108.4,nt
COCCNC(=O)CN1CC=C(c2noc(C3CCC3)n2)CC1,117.2,nt
O=C(CN1CCCN(Cc2ccccc2)S1(=O)=O)N1CCCCC1,105.6,nt
CCOC(=O)C1=C(N)OC(C)=C(C(=O)OCc2ccccc2)C12C(=O)Nc1ccccc12 (centres undefined),104.9,nt
CNC1(c2nnnn2-c2ccc(Cl)cc2)CCCCC1,106.3,nt
O=[N+]([O-])C12CN3CN(C1)CC([N+](=O)[O-])(C3)C2,107.5,nt
COc1ccc2c(c1)C1(CCN(C(=O)CC(C)(C)C)C1)C(=O)N2C (centres undefined),98.4,nt
OC1/C(=C/c2ccccc2Cl)N2CCC1CC2 (centres undefined),110.9,nt

# Reprinted at random: six entries already listed, in no set order.
SMILES,GIV Gai3 FP,HCMV NEC inh
Cc1cccc(Cn2cccc(C(=O)Nc3nc(C)cs3)c2=O)c1,108.9,nt
COC(=O)C1C(=O)NC2(C)CC1c1ccccc1O2 (centres undefined),105.7,nt
CC12CC[C@H]3[C@@H](CCC4(O)C[C@H](O)CCC34/C=N/NC(=O)CCCc3c[nH]c4ccccc34)C1(O)CCC2C1=CC(=O)OC1 (some centres undefined),118.3,nt
CCOC(=O)C1=C(N)OC(C)=C(C(=O)OCc2ccccc2)C12C(=O)Nc1ccccc12 (centres undefined),104.9,nt
OC1/C(=C/c2ccccc2Cl)N2CCC1CC2 (centres undefined),110.9,nt
CNC1(c2nnnn2-c2ccc(Cl)cc2)CCCCC1,106.3,nt

# (cont.)
SMILES,GIV Gai3 FP,HCMV NEC inh
Cc1ccc2c(c1)C1CN(C)CCC1N2C(=O)CNCCCO (centres undefined),100.0,nt
CCCCCC(C)C(C)c1cc(OCC(=O)N2CCN(C3CC3)CC2)c2c(c1)OC(C)(C)C1=C2CCC1 (centres undefined),103.9,nt
COc1ccccc1Cn1c(SCC(=O)C(C)(C)C)nc2cc(C(=O)N3CCC4(CC3)OCCO4)ccc2c1=O,101.4,nt
Cc1nc(-c2ccncc2)nc2c1CC(=O)N2CCN1CCOCC1,105.6,nt
O=C1CN=C(c2ccccc2)c2oc3ccc(Br)cc3c2N1,105.8,nt
O=C(O)c1c[nH]c2ccc(S(=O)(=O)N3CC4CC(C3)c3cccc(=O)n3C4)cc2c1=O (centres undefined),111.1,nt
O=C(Nc1ccc2c(c1)OCO2)c1cccn(Cc2c(F)cccc2Cl)c1=O,107.1,nt
O=[N+]([O-])c1cc2c(c([N+](=O)[O-])c1)NCCN=C2c1ccccc1,110.2,nt
CCCCCCCCCCn1c(CBr)c(C(=O)OCC)c2cc(OC(C)=O)ccc21,101.0,nt
CC(=O)OC1N=C(c2ccccc2)c2cc(Br)ccc2NC1=O (centres undefined),130.5,nt
Cc1ccc(C(=O)N/C(=C\Cl)P(=O)(c2ccccc2)c2ccccc2)cc1,107.5,nt
CC1=NCCc2c1[nH]c1ccccc21,100.3,nt
CCOC(=O)c1c(-c2ccccc2)n(Cc2ccccc2)c2ccc(OC(C)=O)cc12,104.8,nt
COc1ccc2c(c1)C1(CCN(C(=O)CC(C)(C)C)C1)C(=O)N2 (centres undefined),98.2,nt
CCOP(=O)(COCP(=O)(OCC)OCC)OCC,105.8,nt
Cc1nc(-c2ccncc2)nc2c1CC(=O)N2CCN1CCN(C)CC1,107.4,nt
CN(C)c1ccc(C(=O)N/N=C/C23CC[C@@H](O)CC2(O)CC[C@@H]2[C@@H]3CCC3(C)C(C4=CC(=O)OC4)CCC23O)cc1 (some centres undefined),107.0,nt
CC12CC[C@H]3[C@@H](CCC4(O)C[C@H](O)CCC34/C=N\NC(=O)c3cccc(NC(=O)c4cccc(Br)c4)c3)C1(O)CCC2C1=CC(=O)OC1 (some centres undefined),111.6,nt
COc1ccc(OC)c(C2=NCC(=O)Nc3c2oc2ccc(Cl)cc32)c1,108.5,nt
CC(=O)OC1(c2ccccc2)CCN(C2CCCCC2)CC1C (centres undefined),109.1,nt
CCCCn1c(=O)c(C(=O)Nc2nc3ccc(C)cc3s2)c(O)c2ccccc21,107.4,nt
COc1ccc2c(c1)C1(CCN(C(=O)C(C)C)C1)C(=O)N2 (centres undefined),107.7,nt
CCC1CN(C)CCC1(OC(C)=O)c1ccccc1 (centres undefined),99.6,nt
O=C1CC(=O)N(c2ccccc2)C(=S)N1c1ccccc1,122.2,nt

# Among those listed so far, these have an NH in an aromatic ring.
SMILES,GIV Gai3 FP,HCMV NEC inh
CC12CC[C@H]3[C@@H](CCC4(O)C[C@H](O)CCC34/C=N/NC(=O)c3cc4c(cn3)[nH]c3ccccc34)C1(O)CCC2C1=CC(=O)OC1 (some centres undefined),104.6,nt
CC12CC[C@H]3[C@@H](CCC4(O)C[C@H](O)CCC34/C=N/NC(=O)CCCc3c[nH]c4ccccc34)C1(O)CCC2C1=CC(=O)OC1 (some centres undefined),118.3,nt
O=C(O)c1c[nH]c2ccc(S(=O)(=O)N3CC4CC(C3)c3cccc(=O)n3C4)cc2c1=O (centres undefined),111.1,nt
CC1=NCCc2c1[nH]c1ccccc21,100.3,nt

# (further entries)
SMILES,GIV Gai3 FP,HCMV NEC inh
CCC1(C)CC(CCNCc2ccc(OC)cc2)(c2ccccc2OC)CCO1 (centres undefined),104.0,nt
O=C1Nc2ccc(Br)cc2/C1=C/c1nc2ccccc2c(=O)n1-c1ccccc1,105.2,nt
O=C(Nc1nccs1)c1cccn(Cc2ccc(Cl)cc2)c1=O,105.8,nt
C#CCN1CCC2=C(C1)c1c(O)cc(C(C)CCc3ccc(F)cc3)cc1OC2(C)C (centres undefined),104.9,nt
Cc1ccc2c(c1)C(c1ccccc1)=NC(O)C(=O)N2 (centres undefined),106.0,nt
CCNC(=S)N1CC2CC(C1)c1cccc(=O)n1C2 (centres undefined),110.2,nt
CCC1(C)CC(CCNCc2ccccc2)(c2ccc(C)cc2)CCO1 (centres undefined),112.4,nt
CCOC(=O)Cc1csc(NC(=O)c2cccn(Cc3ccc(Br)cc3)c2=O)n1,106.7,nt
COc1ccc(CNC(=O)N2CCC3(C2)C(=O)N(C)c2ccc(OC)cc23)cc1 (centres undefined),95.5,nt
CCOC(=O)C1=C(N)OC2=C(C(=O)CCC2)C12C(=O)Nc1ccccc12 (centres undefined),119.3,nt
COc1ccc2c(c1)C1(CCN(C(=O)NC3CCCCC3)C1)C(=O)N2C (centres undefined),102.6,nt
CCC(=O)N1c2ccc(C)cc2C2CN(C)CCC21 (centres undefined),105.6,nt
CN1C(=O)N(C)C2C1N(C)C(=O)N2C (centres undefined),106.2,nt
CCC(=O)N1CCc2cc(N3CC(C(=O)N4CCC5(CC4)OCCO5)CC3=O)ccc21 (centres undefined),104.1,nt
COCCOC(=O)C1=C(COC)OC(N)=C(C(=O)OC)C12C(=O)Nc1ccccc12 (centres undefined),108.6,nt
CCOC(=O)C1C(=O)NC2(C)CC1c1ccccc1O2 (centres undefined),98.0,nt
O=C1CNC(c2ccccc2Cl)c2cc(Br)ccc2N1 (centres undefined),110.6,nt
COC(=O)CN1C(=O)CN=C(c2ccccc2)c2cc(Br)ccc21,111.5,nt
COc1ccc(-n2nnnc2C2(N3CCOCC3)CCCCC2)cc1,106.3,nt
O=Cc1cn(Cc2nc(-c3ccc(Br)cc3)no2)c2ccccc12,103.4,nt
O=C1NC(=S)N(c2cccc(Br)c2)C(=O)/C1=C/C=C/c1ccccc1,111.2,nt
CCOC(=O)C1C(=O)NC2(C)CC1c1cc(OC)ccc1O2 (centres undefined),107.9,nt
Cc1c(C#N)c2nc3ccccc3n2c(=O)/c1=C/Nc1ccc(Nc2ccccc2)cc1,183.4,nt
O=C(Nc1nccs1)c1c(O)c2c(n(Cc3ccco3)c1=O)CCCC2,108.0,nt
COc1ccc2c(c1)C1(CCN(C(=O)NC(C)(C)C)C1)C(=O)N2 (centres undefined),101.6,nt
CCOc1ccc2nc(Sc3ccc(C=C4C(=O)NC(=O)NC4=O)o3)sc2c1,114.3,nt
COC(=O)[C@@H](N)CCCN/C(N)=N/[N+](=O)[O-],nt,-0.5
O=C(NC(=O)c1c(F)cccc1F)Nc1cc(Cl)c(OC(F)(F)C(F)C(F)(F)F)cc1Cl (centres undefined),nt,-33.7
C1CCN(C2CCNCC2)CC1,nt,-9.9
O=C1CC(C(=O)N2CCC3(CC2)OCCO3)CN1CCc1ccccc1 (centres undefined),nt,-6.5
COc1ccc(C[C@@H]2NC[C@@H](O)[C@@H]2OC(C)=O)cc1,nt,-18.7
Cc1ccc2c(c1)C1(CCN(CCc3nc(-c4ccccc4)oc3C)CC1)OC(=O)N2,nt,6.2
CN(C)[C@@H]1C(=O)C(C(N)=O)=C(O)[C@@]2(O)C(=O)C3=C(O)c4c(O)ccc(Cl)c4[C@@](C)(O)C3C[C@@H]12 (some centres undefined),nt,-26.3
c1cncc([C@H]2CCCCN2)c1,nt,-21.0
CN=C(NS(=O)(=O)c1ccc(Cl)cc1)N1C[C@@H](c2ccccc2)C(c2ccc(Cl)cc2)=N1,nt,-26.2&-26.2
Clc1ccc(CNc2nccs2)cn1,nt,-12.8
O=C(COc1ccc(Cl)cc1Cl)NO,nt,-23.4
